Mtb bLac sens: beta-lactam sensitization of Mtb H37Rv, H37Rv; M. tuberculosis H37Rv growth with meropenem, percent inhibition; hits of this screen are not shown here; inhibition, % at 25 µM; 330,000 tested, 0.27% active;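 active means about 74% or more and at least 40 points above the plate without the antibiotic, then above 30% in a dose series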;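 further: growth measured after seven days incubation then overnight dye step; 0% = bacteria only wells and 100% = bacteria with antibiotic; twin plates without the antibiotic show which effects depend on it; some results filed as inactive read as strong as hits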
YopH inh: YopH tyrosine phosphatase inhibitors, primary screen, biochemical, fluorescence Ex485/Em525. 140,000 tested, 0.16% active. inhibition, %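 (about 10 µM by stock and volumes)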. YopH tyrosine phosphatase [Yersinia enterocolitica];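 active means inhibition of 50% or more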;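 further: controls were vehicle for no effect and minimum signal wells for full effect; inactives centre near -20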
Mtb H37Rv: M. tuberculosis H37Rv growth inhibitors, H37Rv strain (AID 1626); M. tuberculosis H37Rv growth inhibition; higher % means a stronger effect; one-dose inhibition, % at 10 µM; IC50 in µM for titrated hits; 220,000 tested, 0.95% active;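 active means confirmed in a dose series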;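 further: bacteria incubated seven days before Alamar blue readout; 0% = bacteria only wells and 100% = bacteria with antibiotic wells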
RecA splice inh: Mtb RecA intein splicing inhibitors, primary screen, biochemical, fluorescence, HTS. inhibition, %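 (about 9 µM by stock and volumes)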. cell-free RecA intein splicing. Protein RecA (Mycobacterium tuberculosis (strain ATCC 25618 / H37Rv)), P9WHJ3. AID 2221, 2009. 290,000 tested, 0.75% active; in the data active means inhibition above about 30%;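 further: 0% = vehicle wells and 100% = reference inhibitor control wells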
Target sequence (P9WHJ3 whole entry, looked up, canonical isoform): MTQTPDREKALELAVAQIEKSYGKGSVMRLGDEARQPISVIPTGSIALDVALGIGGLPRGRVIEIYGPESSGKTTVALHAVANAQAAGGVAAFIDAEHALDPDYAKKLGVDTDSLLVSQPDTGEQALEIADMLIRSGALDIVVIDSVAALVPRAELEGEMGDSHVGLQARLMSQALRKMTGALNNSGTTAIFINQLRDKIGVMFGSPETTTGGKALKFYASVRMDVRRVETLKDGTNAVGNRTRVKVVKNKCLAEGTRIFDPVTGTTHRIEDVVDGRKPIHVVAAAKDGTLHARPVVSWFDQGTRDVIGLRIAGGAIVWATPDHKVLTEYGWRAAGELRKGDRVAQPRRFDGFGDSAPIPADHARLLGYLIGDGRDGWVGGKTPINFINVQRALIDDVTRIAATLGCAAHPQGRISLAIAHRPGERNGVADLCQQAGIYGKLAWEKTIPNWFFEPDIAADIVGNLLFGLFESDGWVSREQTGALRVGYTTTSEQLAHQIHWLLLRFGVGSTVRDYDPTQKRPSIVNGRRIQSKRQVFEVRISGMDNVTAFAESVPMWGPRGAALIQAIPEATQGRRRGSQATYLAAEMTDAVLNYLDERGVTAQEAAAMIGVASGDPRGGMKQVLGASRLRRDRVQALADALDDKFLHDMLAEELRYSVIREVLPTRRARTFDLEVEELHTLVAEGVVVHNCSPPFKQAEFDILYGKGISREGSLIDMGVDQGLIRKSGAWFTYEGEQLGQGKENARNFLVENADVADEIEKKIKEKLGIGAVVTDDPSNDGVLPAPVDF
Arbovirus inh: antivirals against arbovirus infection, primary screen, cell-based, full library, 10K replicate subset. arbovirus infection cell-based antiviral screen. inhibition, % at 10 µM. 200,000 tested, 0.37% active. AID 1251, 2008;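 active means inhibition from about 30%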;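 further: bluetongue infection of BSR cells; cell survival read as ATP light after 72 h; 0% = infected wells without compound and 100% = uninfected wells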
Arbovirus inh repeat: also measured in Arbovirus inh; calls as there; inhibition, %; measured here: 10K subset replicate screen; many hits read low in the repeat;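 first of two repeat runs on a subset; 0% = infected and 100% = uninfected wells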
Starred values were filed as active, the others as inactive; · = not tested or not shown. A portion of the library. The share of hits here may be higher or lower than overall.

SMILES	Mtb bLac sens	YopH inh	Mtb H37Rv	RecA splice inh	Arbovirus inh	others
COc1ccc(CNC(=O)CSc2nc3ccc(N)cc3s2)cc1	10	-12	9%	2.2	-23
Cc1sc2nc(CN(Cc3cccs3)C(=O)C3CC3)[nH]c(=O)c2c1C	-16	12	1%	-0.6	0
COC(=O)N/N=C/c1cn(CCCOc2ccc(C)cc2)c2ccccc12	3	-27	13%	4.3	5
CC1CCCC(NC(=O)Nc2cccs2)C1C (stereo not given)	-1	-21	-3%	-1.3	10
O=C1COc2ccc(C(=O)c3ccccc3)cc2CN1	-2	-12	-8%	-0.6	6
COc1ccc(C(=O)CCNc2ccc3c(c2)OCCO3)cc1	46	·	99%	-1.8	2
COC(=O)[C@@H]1[C@@H](C)OC(=O)N[C@H]1c1ccccc1	-10	-10	6%	-2.7	2
O=C1NN(c2ccc(F)cc2)C(=O)/C1=C\C=C\c1ccco1	80	-17	66%	-1.0	-19
COc1ccccc1NC(=O)Nc1ccnn1C1CCN(C(=O)c2ccccn2)CC1	-7	·	·	-2.5	·
CN1C(=O)C(=Cc2cn(CC(=O)N3CCCC3)c3ccccc23)C(=O)N(C)C1=O	-6	·	·	2.6	·
CS(=O)(=O)Nc1ccc(C2=NN(C(=O)c3ccco3)C(c3ccco3)C2)cc1 (stereo not given)	2	·	·	1.4	·
Cc1nn(-c2ccc(F)cc2)c2c1cc(C#N)c1nc3ccccc3n12	-5	11	-4%	-58	4	Arbovirus inh repeat=-5
CC(C)(C)n1ncc2c(=O)n(CC(=O)NC3CCCCC3)cnc21	-16	-39	-6%	-5.1	1
O=C(NCCNC(=O)c1ccccn1)c1cccc(F)c1	-3	·	·	-4.8	·
CCC1CCCCN1C(=O)/C=C/c1ccc2c(c1)OCO2 (stereo not given)	1	·	·	-4.0	·
COC(=O)CCc1sc(NC2CCCCC2)nc1-c1ccc(OC)cc1	4	-18	11%	-4.4	5
CCNc1nc(SCCOc2ccc(Br)cc2)nc(N(C)C)n1	-2	·	-1%	0.9	9
CC(C)C(=O)NC(NCC1CCCO1)C(Cl)(Cl)Cl (stereo not given)	-3	-49	-9%	-2.8	-5
CN(C1CCCCC1)S(=O)(=O)c1ccc(Cl)c(C(=O)O)c1	-4	-51	-3%	2.4	-2
COc1ccc(C2(CNC(=O)c3ccco3)CCOCC2)cc1	-7	0	-6%	0.8	-3
O=C(c1cc(-c2ccccc2)nn1CC1CC(c2cccnc2)=NO1)N1CCOCC1 (stereo not given)	-22	·	7%	0.6	·
N=C1C(c2ccccc2)=C(O)CN1c1cccc(O)c1	-6	·	-6%	-3.9	2
CCc1ccc(CNC(=O)Cc2ccc(NC(=O)C3=C(C)OCCS3)cc2)cc1	-1	·	·	1.0	·
COC(=O)c1cc(-c2cccs2)nn1-c1ccccc1	15	·	1%	·	4
COc1ccc(/C=C/C(=O)Nc2cccc(F)c2)cc1S(=O)(=O)N1CCOCC1	-5	·	8%	-0.3	8
O=C1CN(C(=O)N[C@@H](Cc2ccccc2)C(=O)N[C@H](Cc2ccccc2)C(=O)O)c2ccccc2N1	7	·	·	1.0	·
CCOC(=O)c1c(C)nn(-c2ccc(NC(=O)/C=C/C(=O)O)cc2)c1C	-3	·	·	6.6	·
Cc1cc(NC(=O)CCCS(=O)(=O)c2nc(-c3cccs3)cc(C(F)(F)F)n2)no1	90	-31	6%	15	-33
Cc1ccc2ccccc2c1NC(=O)Cn1nnc(-c2cccnc2)n1	73	·	10%	0.2	-5
Cc1c(C(=O)OCc2ccc(F)cc2)sc2nc3n(c(=O)c12)CCC3	62	·	·	-15	·
Nc1cc(C(=O)O)ccc1Sc1ccccc1C(=O)O	6	·	-2%	-7.5	2
CC(=O)c1sc2ccccc2c1OC(=O)c1ccco1	99	-7	·	12	5	Arbovirus inh repeat=-8
CCN1CCN(C(=O)c2cc3c(OC)c(OC)c(OC)cc3[nH]2)CC1	0	·	·	-0.8	·
S=C(NCc1ccc(Cl)cc1)N1CCN(c2ccccn2)CC1	-5	·	-1%	-1.2	-4
O=C(COC(=O)c1cccnc1Cl)Nc1ccccc1OC(F)F	-6	·	-6%	1.5	1
O=S(=O)(Nc1ccc(N2CCCCC2)cc1)c1ccc(F)c(F)c1	2	-25	2%	-0.1	5
CCN(CC)C(=O)COc1ccc2c(-c3ccccc3)cc(=O)oc2c1	2	·	·	0.1	·
Cn1c(N2CCOCC2)nc2c1c(=O)n(Cc1ccc(Cl)cc1)c(=O)n2C	2	-19	-13%	-0.3	·
CC(=O)C1C(c2ccc(F)cc2)NC(=O)NC1(O)C(F)(F)F (stereo not given)	-4	-50	·	-3.3	4
Cc1ccn2cc(CCNC(=O)Cc3cccs3)nc2c1	-3	·	-2%	0.0	4
COCCOc1ccc(C(F)(F)F)cc1NC(=O)c1ccccc1F	-3	-11	4%	2.4	-5
CCOC(=O)C1CCN(C(=O)C2CCN(S(=O)(=O)N3CCC4(CC3)OCCO4)CC2)CC1	-2	·	·	-0.7	·
CCOC(=O)N1CCN(C(=O)CCSc2ccc(Cl)cc2)CC1	-6	27	-3%	0.0	9
COc1ccc(N2CCN(C(c3ccccc3OC)c3nnnn3C3CCCC3)CC2)cc1 (stereo not given)	·	-2	6%	2.7	-4
Cc1c(C)c2ccc(O)c(CN3CCN(C)CC3)c2oc1=O	1	·	·	-25	·
Cc1cc(OC(C(=O)O)c2ccccc2)c2c(C)c(Cc3ccccc3)c(=O)oc2c1 (stereo not given)	4	·	6%	-1.9	·
COC1CCCN(Cc2nc(Cc3ccccc3F)no2)C1 (stereo not given)	-9	·	-7%	-14	-1
COc1ccc(-c2nc(CS(=O)CC(=O)NCc3ccco3)c(C)o2)cc1OC (stereo not given)	-2	-4	7%	2.1	-2	Arbovirus inh repeat=-8
COC(=O)CNc1nc(-c2cccnc2)nc2ccccc12	-5	-1	2%	·	-5
Cc1ccc(-c2nnc(Nc3ccc(CC(N)=O)cc3)c3ccccc23)cc1S(=O)(=O)NCCO	0	·	·	0.2	·
Cc1ccnc(NC(=O)CN2C(=O)c3ccccc3S2(=O)=O)c1	-1	·	·	-2.4	·
CC(=O)N(c1cccc(C)c1)S(=O)(=O)c1ccc(Cl)cc1	-1	·	5%	1.6	3
O=C(c1ccc(F)cc1)N1C2CCC1CC(O)(c1ccccc1F)C2 (stereo not given)	-4	-44	-8%	2.5	5
Cc1ccc(Nc2nc(N)c([N+](=O)[O-])c(NCc3ccccc3)n2)cc1	-1	·	4%	1.5	·
CN1C(=O)C(=Cc2ccccc2OCc2ccccc2Cl)C(=O)N(C)C1=O	-1	-41	3%	0.8	12
O=S1(=O)N=C(N/N=C/c2cccs2)c2ccccc21	5	·	·	-0.3	·
O=C(Nc1cccnc1)c1ccc(NC(=O)c2ccco2)cc1	-8	-25	-8%	-2.0	0
CCc1nnc(NS(=O)(=O)c2ccc(N3C(=O)C4CC=C(Cl)CC4C3=O)cc2)s1 (stereo not given)	9	-20	4%	-5.9	8
CC(C)N(Cc1ccccc1)C(=O)Cn1c(=O)cnc2ccccc21	3	·	12%	-16	·
O=C(NC1(C(F)(F)F)N=C(c2ccccc2)NC1=O)c1ccccc1F (stereo not given)	-2	-14	6%	3.3	0
(list continues)
SMILES	Mtb bLac sens	YopH inh	Mtb H37Rv	RecA splice inh	Arbovirus inh	others
NC(=O)C1CCN(C(=S)NCc2ccc3c(c2)OCO3)CC1	-2	·	0%	-0.6	6
CCOC(=O)CC(NC(=O)c1cc2cccc(OC)c2oc1=O)c1cccc([N+](=O)[O-])c1 (stereo not given)	-3	-10	15%	1.0	-5
Cc1noc(/C=C/N(C)C)c1S(=O)(=O)N1CCCC(C(=O)NCc2cccs2)C1 (stereo not given)	7	-39	-2%	3.0	-6	Arbovirus inh repeat=-23
OC(COc1ccc(Cl)cc1)CN1CCN(c2ccccn2)CC1 (stereo not given)	-6	·	·	0.0	·
CC(=NCCc1ccccc1)c1c(O)n(C)c(=O)n(C)c1=O	-2	·	5%	-6.3	·
COc1ccc(N2CC(C(=O)Nc3ccc(S(=O)(=O)N4CCCC4)cc3)CC2=O)cc1 (stereo not given)	-3	·	·	-7.2	·
C/C(=N/Nc1ccc([N+](=O)[O-])cc1)c1c[nH]c2ccccc12	85	·	·	-2.4	·
Cc1ccc(S(=O)(=O)Nc2nc3ccc(N)cc3s2)cc1	0	·	·	0.5	·
O=C(Nc1ccccn1)c1sc2cc([N+](=O)[O-])ccc2c1Cl	7	·	·	-0.5	·
Cc1cc(C)cc(NC(=O)CSc2nnc(C3CC3)n2CC2CCCO2)c1 (stereo not given)	-2	·	·	12	·
OC(COCc1cccs1)CN1CCN(c2ccccn2)CC1 (stereo not given)	3	-42	-2%	0.9	3	Arbovirus inh repeat=1
Cc1ccccc1OCC(=O)Nc1ccc2c(c1)n(C)c(=O)n2C	3	·	1%	-2.0	4
O=C(CCS(=O)(=O)c1ccc(F)cc1)N1CCOCC1	-4	·	·	-1.4	·
CCCCC(=O)OCC(=O)Nc1ccc(SC(F)F)cc1	86	·	>100µM*	-0.2	7
COC(=O)c1ccc(NC(=S)N2CCN(Cc3ccccc3OC)CC2)cc1	1	·	-5%	1.1	1
Cc1[nH]c2ccccc2c1C(=O)COC(=O)Cn1cnc2ccccc21	-3	-33	-7%	0.0	-6
